# Rango release inh = inhibition of RanGTP-driven Rango-importin beta dissociation; O95149+P62826; Biochemical FRET Rango-importin beta, RanGTP-induced dissociation; Potency, µM (highest dose often 46.1 µM), for inactives: top-dose activity change, negative = inhibition; 340,000 tested, 0.071% active; active means falling FRET ratio curve, often poorly fitted, with flat reads before Ran was added; inconclusive means other falling curves, or compound fluorescence or quenching; inactive means flat or rising ratio curve;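 note: potency is the fitted concentration of half-maximal effect; % of control where 0% means no effect; nearly all actives have a fitted effect of over 45% in size; -100% = wells without RanGTP and RCC1; the record marks most hits as doubtful in a second field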
#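 Rango (0.1 uM)–importin beta (0.25 uM) complex; RanGTP-RCC1 trigger; 45 min RT; CFP/YFP FRET read.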
# miR-21 reporter = miR-21 reporter, rising signal; Potency, µM (highest dose often 38.3 µM), inactives show at the highest dose reporter change, positive = more light; HeLa miR-21 FLuc reporter, luciferase, 48 h; 340,000 tested, under 10 active; active = well fitted rising curve with a large enough effect; inconclusive = small, poorly fitted or top-dose-only effect; inactive = no such curve, though single readings can be large or run the other way;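 note: % of control where 0% means no effect; miR-21 action dims this reporter so a rising signal means less miR-21 action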
#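 HeLa cells endogenously expressing miR-21, stably carrying CMV-driven firefly luciferase with a downstream miR-21 binding site, 2000 cells/well. Titrations up to approximately 40 uM, 48 hours; luciferase luminescence read.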
# GLA inh pH 4.5 = inhibitors of human alpha-galactosidase A at pH 4.5; 230,000 tested, under 10 active; activity change, negative = inhibition, % at 105 µM; AID 1467; purified enzyme, 4-MU-alpha-Gal fluorescence, pH 4.5; inconclusive = small, poorly fitted or top-dose-only inhibition, or a rising curve; inactive = flat fitted curve, though single readings scatter; no compound was filed as active;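 note: 0% = full activity with enzyme and -100% = basal without enzyme; dose as in the result columns while the protocol names 77 µM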
# Target sequence (P06280 whole entry, looked up): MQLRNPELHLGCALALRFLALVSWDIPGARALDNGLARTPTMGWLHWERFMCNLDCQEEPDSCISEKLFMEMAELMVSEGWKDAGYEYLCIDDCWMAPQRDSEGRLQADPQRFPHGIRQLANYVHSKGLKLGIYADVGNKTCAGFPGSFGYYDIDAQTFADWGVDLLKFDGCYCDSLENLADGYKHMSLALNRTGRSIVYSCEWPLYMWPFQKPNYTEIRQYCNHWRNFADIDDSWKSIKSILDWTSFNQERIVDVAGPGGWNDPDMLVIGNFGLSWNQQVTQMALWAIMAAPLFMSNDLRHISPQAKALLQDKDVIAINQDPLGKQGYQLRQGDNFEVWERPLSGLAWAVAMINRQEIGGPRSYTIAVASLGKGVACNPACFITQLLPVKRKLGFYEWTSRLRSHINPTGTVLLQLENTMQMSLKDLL
# Rango complex inh = Rango-importin beta binding inhibition | Q14974 | Rango CFP/YFP FRET sensor + importin beta, 45 min | Potency, µM (doses to about 92.2 µM), inactives show at the top dose inhibition of complex formation | 340,000 tested, 0.031% active | AID 540263; active = rising FRET ratio curve, often small or poorly fitted; inconclusive = mostly compound fluorescence or quenching in the first reads; inactive = flat curves in all reads;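 note: potency is the fitted concentration of half-maximal effect; 0% = DMSO wells and 100% = buffer wells lacking importin beta; nearly all actives have a fitted effect of over 15% in size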
#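 FRET biosensor Rango (snurportin 1 IBB between N-terminal EYFP and C-terminal Cerulean), 50 nM in PBS/1 mM DTT/0.02% Tween-20/0.1% BSA, preincubated 5 min RT with compound; 0.125 microM importin beta added, 45 min RT, CFP/YFP FRET ratio read.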
# * marks the source's active call; other numbers are inactive results; ? = inconclusive; . = not tested or not shown; & = joins results of further samples; [ ] = another dose, or the depositor's remark.
SMILES	Rango release inh	miR-21 reporter	GLA inh pH 4.5	Rango complex inh
Cc1cc(C(=O)COC(=O)CNC(=O)c2ccccc2)c(C)n1CC1CCCO1 (centres undefined)	20.6%	-10.3%	7.3	0.3%
COc1ccc(O)c(CNc2ccccc2F)c1	-1.9%	-19.7%	-2.1	3.7%
O=C(Nc1ccccc1)N1CC=C(c2ccccc2)CC1	.	-57.4%	-1.5	.
O=C(Nc1ncccc1O)c1ccc(S(=O)(=O)N2CCCC2)cc1	47.0%	.	.	2.5%
CC(=O)N1C(=O)c2cccc3cccc(c23)C(=O)N1C(C)=O	-10.5%	-6.3%	1.9	-0.5%
Oc1oc(-c2ccc(Br)cc2)nc1C=Nc1ccc(Br)cn1	-12.2%	-3.4%	-11.1	3.6%
CCN(CC(=O)NCc1cccs1)CC(=O)Nc1c(Cl)ccc(C)c1Cl	-1.2%	.	.	3.9%
CCN(C(=O)COC(=O)c1c(NC(C)=O)sc(C)c1C)c1c(N)n(Cc2ccccc2)c(=O)[nH]c1=O	-6.3%	.	.	7.5%
Cc1ccc2nc(-c3ccc(NC(=S)NCC(C)(C)CN(C)C)cc3)sc2c1	-16.4%	.	.	-2.9%
CN(C(=O)c1c[nH]c(=O)cc1C(F)(F)F)c1ccc(Cl)cc1	0.5%	-1.9%	0.7	1.0%
CC(=O)N1c2ccc(S(=O)(=O)NCC3CCC(C(=O)NCc4ccccc4)CC3)cc2CC1C (centres undefined)	-1.2%	15.1%	.	-0.6%
COc1ccc(-c2cc(C(F)(F)F)nc(S(C)(=O)=O)n2)cc1	-12.6%	?	1.3	-10.9%
CC(C)Cc1nc2oc3c(=O)[nH]cnc3c2c2c1CCCC2	-3.9%	-2.8%	-2.7	-1.0%
COc1cc2ccccc2cc1C(=O)Nc1nc(C)c(C(C)=O)s1	3.0%	-45.1%	.	5.5%
N#Cc1ccsc1NC(=O)CSc1nnc(-c2ccccc2)o1	4.3%	-22.5%	-3.9	0.3%
CCOc1ccc2ncc(S(=O)(=O)c3ccccc3)c(N3CCC4(CC3)OCCO4)c2c1	.	-13.2%	0.0	.
O=C(Nc1ccc(S(=O)(=O)Nc2ncccn2)cc1)c1ccccc1NS(=O)(=O)c1ccc(F)cc1	-9.9%	-1.4%	3.5	0.2%
COc1cccc(NC(=O)Nc2cccnc2)c1	0.8%	-9.6%	5.8	3.7%
C[C@]12CC[C@H](O)CC1=CCC1C2CC[C@@]2(C)C1CC[C@@H]2NC(=O)[C@@H](N)CO (some centres undefined)	?	.	.	-3.2%
COC(=O)c1cc(CSc2nc3ccc(C)cc3[nH]2)oc1C	6.6%	-1.4%	4.8	-1.3%
Cc1nn(Cc2c(F)c(F)c(F)c(F)c2F)c(C)c1NC(=O)c1ccc(COc2ccc(F)cc2)o1	1.7%	17.6%	-10.3	2.2%
COc1ccccc1N1CCN(C(=O)c2ccc(Cn3c(=S)[nH]c4cc5c(cc4c3=O)OCO5)cc2)CC1	-2.3%	0.4%	-14.0[21.1 µM]	-0.1%
CCOC(=O)c1cc(NC(=O)c2ccccc2)c(=O)n2c1oc1ccccc12	5.2%	1.8%	6.2[21.1 µM]	-3.7%
N=C1CCC(=N)c2c1c(O)c1ccccc1c2O	-23.9%	-0.5%	-3.5	?
C=CCn1c(CSc2nc3ccccc3s2)n[nH]c1=S	2.6%	-20.2%	-12.8	4.1%
c1ccc(-c2cn3cccnc3n2)cc1	14.7%	-26.9%	?	-1.6%
O=C(CSc1nc2ccccc2c(=O)n1Cc1ccco1)c1ccc(F)cc1	12.9%	-10.9%	10.8	?
CC(C)NC(=O)c1cccc2c1-c1ccccc1C2=O	-6.0%	-5.0%	.	0.6%
NNC(=O)c1csc(Cc2c(Cl)sc3ccc(Cl)cc23)n1	0.2%	-6.2%	1.3	1.7%
COc1ccc2c(c1)-c1c(ssc1=S)C(C)(C)N2	16.3%	?	-11.7	3.3%

# The listing continues.
SMILES	Rango release inh	miR-21 reporter	GLA inh pH 4.5	Rango complex inh
Cc1ccc(S(=O)(=O)N(c2nc(NC(C)C)nc(NC(C)C)n2)n2cnnc2)cc1	19.1%	-21.5%	-6.4	-0.2%
COc1ccc(/C=C(/NC(=O)/C=C/c2ccccc2)C(=O)O)cc1	-13.8%	0.2%	0.0	0.3%
Cc1ccc(S(=O)(=O)N2CCN(C(=O)CNC(=O)c3sc4ccccc4c3Cl)CC2)cc1	9.0%	.	.	-3.4%
O=C(Nc1ccccc1C(F)(F)F)C1CC(=O)N(c2ccccc2F)C1 (centres undefined)	0.4%	-1.7%	-2.4	0.3%
COc1cc(-c2nc3n(n2)C(c2ccncc2)C(C(N)=O)=C(C)N3)cc(OC)c1OC (centres undefined)	2.8%	-2.7%	4.4	3.0%
Cc1nc2ccc(NC(=O)N3CCCCC3)cc2nc1C	-9.4%	-22.5%	10.4	?
COC(=O)Nc1ccccc1C(=O)N1CCC(O)(c2ccc(Cl)cc2)CC1	12.0%	-11.0%	-2.3	-0.3%
CC1(c2ccccc2)NC(=O)N(CC(=O)Nc2ccc(N3CCOCC3)cc2N2CCOCC2)C1=O (centres undefined)	-9.9%	.	.	-3.1%
O=C(Cc1ccc2c(c1)CCCC2)Nc1ccccc1Cl	20.3%	-22.4%	3.6	-7.4%
O=C(c1ccc2ncsc2c1)N1CCN(c2nc3ccccc3s2)CC1	-4.5%	17.4%	.	-0.1%
COc1ccc(OC(C)C(=O)N2CCN(c3ccccn3)CC2)cc1 (centres undefined)	-6.8%	-1.4%	-3.6	-3.3%
COc1cc(/C=N/N(C)c2ccccc2)cc(Cl)c1O	-3.0%	-37.3%	-21.0	-0.6%
O=C(/C=C/c1cccc([N+](=O)[O-])c1)c1ccc([N+](=O)[O-])o1	-5.9%	.	.	-0.5%
O=C(CSc1nc2ccccc2c(=O)n1-c1ccc(OC(F)F)cc1)NC1CC1	12.5%	.	.	0.9%
COc1ccccc1S(=O)(=O)Cc1ccc(C(=O)NC2CC2)o1	-6.9%	-3.5%	.	0.8%
Cc1cccc(Cn2c(=O)n(Cc3ccco3)c(=O)c3ccccc32)c1	12.6%	-8.9%	-7.4	5.2%
CCOc1ccc(Nc2nc(N)nc(CCl)n2)cc1	2.2%	27.4%	-7.0	3.1%
CC(C)Oc1ccc(C(CC(=O)O)NC(=O)Cc2ccc(Cl)cc2)cc1 (centres undefined)	-1.3%	-4.7%	.	-0.6%
CCOc1ccc(CCNC(=O)C(C)N2C(=O)CC(C)(C)Sc3ccccc32)cc1 (centres undefined)	1.1%	11.4%	.	1.4%
CCCCN1CCC(CN2C(=S)NC[C@@H]2CC(C)C)CC1	27.3%	.	.	-0.6%
CC1Cc2ccccc2N1S(=O)(=O)c1cccc(C(=O)N2CCN(c3ncccn3)CC2)c1 (centres undefined)	27.2%	?	-6.5	0.2%
COc1ccc(C(=O)C2CC2c2ccc3c(c2)OCO3)cc1 (centres undefined)	0.8%	1.6%	6.5	-1.0%
Cc1c(C#N)c(O)n(CCO)c(=O)c1N=Nc1ccc(S(N)(=O)=O)cc1	-24.1%	-4.7%	-11.3	1.5%
CCC(C(=O)OCC(=O)Nc1cc(OC)ccc1OC)c1ccccc1 (centres undefined)	-8.8%	-4.6%	1.7	-0.1%
COc1cccc(C(=O)CC(C(=O)O)c2ccc(Cl)cc2)c1 (centres undefined)	-27.8%	5.8%	.	?
O=c1[nH]c2c(c(=O)[nH]1)CCCCCC2	1.3%	.	.	1.8%
Cc1ccc2ncc(NC(=O)c3ccc(F)cc3)c(=O)n2c1	1.2%	-17.9%	-6.5	-0.8%
CCc1ccc(N/C(SCc2ccccc2C)=C(/C#N)C(=O)NCc2ccco2)cc1	-4.2%	3.8%	-28.9	1.3%
C[n+]1ccc(/C=C/c2cccs2)cc1	-15.8%	-3.2%	-9.1	?
Cc1[nH]nc2c1C(=O)CC(C)(C)C2	?	-7.8%	1.5	-0.5%

# The list continues.
SMILES	Rango release inh	miR-21 reporter	GLA inh pH 4.5	Rango complex inh
O=C(CN1C(=O)COc2ccccc2C1=O)c1ccc2c(c1)OCCO2	21.6%	0.4%	.	-0.8%
CCOC(=O)CN1C(=O)N(CC)C(C)=C(C(=O)OC)[C@@H]1c1ccccc1	-5.2%	-1.4%	5.6&-1.8	0.3%
CCCCS(=O)(=O)NC1=NCN(Cc2ccco2)CN1	-5.2%	-0.3%	?	4.8%
COC(=O)C1(C(=O)OC)NOC2C(=O)N(c3ccc(Cl)cc3Cl)C(=O)C21 (centres undefined)	-9.0%	-19.0%	-6.1	0.3%
O=C(Cn1nc([N+](=O)[O-])nc1Br)NC1CCCCC1	7.2%	3.9%	.	-3.5%
CCN(CC)CCOC(=O)c1ccc(NC(=O)CCNC(=O)Cn2ccc3ccccc3c2=O)cc1	-5.2%	-3.7%	0.2	-4.7%
CN(Cc1ccccc1)C(=O)C1CCCN(Cc2ccc(Cl)cc2)C1 (centres undefined)	10.5%	12.3%	7.8	0.5%
CN(C)CCN(C(=O)c1ccc(C(=O)c2ccccc2)cc1)c1nc2cc3c(cc2s1)OCCO3	-10.2%	-36.4%	.	3.7%
Cc1cccc(NC(=O)c2cn(-c3ccccc3)nc2-c2ccccc2)c1	-3.6%	-9.3%	-13.5	5.5%
O=C(NCCc1ccccn1)c1nc(Cn2cc(Br)cn2)no1	-7.0%	0.5%	.	3.0%
COC(=O)CC(c1ccc(C(C)C)cc1)n1cccc1 (centres undefined)	5.4%	-1.8%	-5.3	-2.9%
COC(=O)c1ccc(COc2ncnc3c(Cl)cc(Cl)cc23)o1	0.1%	-9.1%	14.2	-2.0%
Cc1cccc(NC(=O)CNC(=O)Cc2ccc(S(=O)(=O)N3CCOCC3)s2)c1C	-7.0%	.	.	0.0%
COc1ccc(C(=O)NC(=S)Nc2ccc3oc(=O)ccc3c2)cc1OC	-19.7%	-1.5%	-0.2	-1.6%
Cc1cc(C)n(C(CC(=O)N2CCc3ccccc3C2)C(=O)O)n1 (centres undefined)	18.2%	-1.5%	6.0	-0.3%
O=C(CC1SC(=O)N(c2ccccc2)C1=O)Nc1ccc(Br)cc1 (centres undefined)	0.9%	-28.6%	2.2	0.1%
COCCNS(=O)(=O)c1ccc(F)c(OC)c1	6.1%	-0.4%	14.3	-0.4%
COc1ccccc1C(=O)N/C(=C\c1cn(C)c2ccccc12)C(=O)NCCCN1CCOCC1	-4.5%	2.2%	.	-0.2%
CC1CCCN(S(=O)(=O)c2ccc(S(=O)(=O)NC(C)c3cccs3)cc2)C1 (centres undefined)	12.6%	8.6%	-1.6	4.2%
CCOC(=O)c1c(C)c(C(=O)NCCN2CCOCC2)c(C)n1C	0.0%	1.5%	0.7	-0.8%
CCC1Nc2ncnc(N3CCCCC3)c2N(Cc2ccc(Br)cc2)C1=O (centres undefined)	5.9%	.	.	2.3%
Cc1nc2nc[nH]n2c(=O)c1C/C=C/c1ccccc1	-7.3%	-2.0%	9.8	1.9%
COC(=O)C1=C(C)Nc2c(c(=O)n(C)c(=O)n2C)C1c1ccc(Cl)cc1 (centres undefined)	-13.9%	-5.5%	-3.5	-2.7%
Cc1ccc(/C=N/n2c(-c3ccc(Cl)cc3)n[nH]c2=S)o1	2.3%	-3.8%	-7.7	-3.7%
CC(C)CC(NC(=O)C(CC(C)C)NC(=O)C(Cc1ccc(OCc2ccccc2)cc1)NC(=O)OC(C)(C)C)C(N)=O (centres undefined)	-5.0%	0.1%	0.1	-0.6%
Cc1ccc(N=Nc2c(N)[nH]n3c(=O)cc(-c4ccccc4)nc23)cc1	-4.1%	-5.1%	0.0	-1.6%
O=C(Nc1ccc(Oc2cccnc2)cc1)c1ccccc1F	-19.9%	1.3%	-19.1	3.0%
CC(C)(C)OC(=O)N[C@@H](C(=O)OC(C)(C)C)c1ccccc1	3.1%	.	.	-0.8%
Cc1cc(C)nc(NC(=O)c2ccc(OC(C)C)cc2)n1	5.0%	-12.0%	5.6	-2.8%
Cc1ccc(S(=O)(=O)CCC(=O)NCCC2=CCCCC2)cc1	-2.2%	.	.	-5.1%
COc1ccc(NC(=O)CSc2nc3ccccc3c3nc4ccccc4n23)cc1	-8.9%	3.9%	-0.1	0.4%

# Not all compounds are listed; count on the stated rates, not on these rows.
